T cruzi repl – inhibitors of intracellular T. cruzi growth, primary screen, luminescence, NIH3T3 host cells; T. cruzi beta-gal in NIH3T3, 90 h; inhibition, % (test concentration not listed); 300,000 compounds, 1.4% hits;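 active = mean inhibition across valid replicates above about 55%, limit read from the data; inconclusive = mean below that limit but half or more replicates reach it; inactive = mean below it, under half of replicates reach it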;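 note: signal also drops with host cell toxicity which is not excluded here; 0% = plate median of DMSO wells and 100% = zero luminescence signal; higher percent means less beta-gal luminescence so fewer parasites; stock transfer was 50 nL into about 50 µL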
RanGTP-Imp inh – inhibitors of RanGTP-importin-beta interaction, primary screen, biochemical, FRET, CFP-Ran, YFP-importin-beta, homogeneous. AID 2216, 2009. inhibition, % (no concentration beside the values). 300,000 compounds, 1.1% hits. cell-free CFP-Ran/YFP-importin-beta FRET ratio;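 active = most replicates above 15%; inconclusive = exactly half above 15%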;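 note: 0% = DMSO wells and 100% = Ran loaded with GDP instead of GTP; wells of about 40 µL received 100 nL stock; the first replicate is given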
rRNA inh HTS – reduced GFP signal of wild-type E. coli, primary screen, bacterial rRNA inhibitor project, GFP/RFP fluorescence, OD600, single point | E. coli WT GFP vs humanized-ribosome RFP mutants, 24 h; active compounds read low; DMSO median 0, no signal -100 | GFP signal change (wild-type ribosome), % (test concentration not listed) | 350,000 compounds, 1.6% hits | AID 720706, 2013;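 active = significant combined selectivity score with lowered wild-type GFP, culture density cut under 30%, mutant RFP and density less affected; inactive = any of these conditions unmet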; note: one replicate is shown; some compounds called inactive have numbers as strong as hits
Calb FLC – C. albicans growth inhibition with fluconazole, primary screen, CaCi-2 strain, Alamar Blue fluorescence. C. albicans CaCi-2 (fluconazole-resistant clinical isolate) + fluconazole, 48 h. AID 1979, 2009. growth inhibition, % (test concentration not listed). 300,000 compounds, 0.57% hits;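 active = most replicates above 75%; inconclusive = exactly half above 75%; inactive = most below 75%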;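 note: all wells also contain fluconazole at 8 µg/ml as a sub-toxic cotreatment; 0% = median of DMSO wells and 100% = median of geldanamycin control wells; wells of about 8 µL received 7.5 nL stock; the first replicate is given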
MLL AF4-AF9 inh – inhibitors of AF4 peptide binding to AF9, primary screen, biochemical, AlphaScreen, biotin-AF4 peptide, FLAG-AF9, single point | inhibition, % at 10 µM | 350,000 compounds, 0.47% hits | AID 651704, 2012;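 active = every replicate reaching a set inhibition limit, whatever the replicate mean, cut at about 25% in these data; inconclusive = mean inhibition reaches that limit but some replicates miss it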;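 note: 0% = plate neutral control median and 100% = total signal loss; the record names both 10 and 1 µM as test concentration; the first replicate is given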
Target sequence (P42568 whole entry, looked up): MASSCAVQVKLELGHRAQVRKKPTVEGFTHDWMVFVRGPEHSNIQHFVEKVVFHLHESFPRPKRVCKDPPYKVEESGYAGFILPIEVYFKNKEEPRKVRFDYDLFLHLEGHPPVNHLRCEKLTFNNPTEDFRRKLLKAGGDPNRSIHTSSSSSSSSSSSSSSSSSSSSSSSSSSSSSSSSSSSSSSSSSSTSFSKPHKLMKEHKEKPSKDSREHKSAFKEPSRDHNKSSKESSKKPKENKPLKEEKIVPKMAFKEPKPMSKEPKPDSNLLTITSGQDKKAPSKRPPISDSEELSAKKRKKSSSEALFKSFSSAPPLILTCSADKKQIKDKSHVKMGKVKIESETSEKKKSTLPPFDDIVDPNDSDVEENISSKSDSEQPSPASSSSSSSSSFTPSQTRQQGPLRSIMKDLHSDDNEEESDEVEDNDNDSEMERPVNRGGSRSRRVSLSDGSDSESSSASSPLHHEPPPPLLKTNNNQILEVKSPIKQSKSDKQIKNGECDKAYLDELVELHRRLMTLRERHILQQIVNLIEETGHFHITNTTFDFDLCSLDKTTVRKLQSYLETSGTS
Vif A3G – inhibitors of Vif binding to APOBEC3G peptide, primary screen, biochemical, TR-FRET, GST-Vif 1-94, biotin-A3G peptide, dose response retest (AID 1117319) | TR-FRET GST-Vif / biotin-A3G peptide binding; higher % means a stronger effect; test concentration not given here; strong numbers were not always called active | inhibition, %; hits with a dose series show IC50 in µM | 260,000 compounds, 0.57% hits | Virion infectivity factor (Human immunodeficiency virus type 1 group M subtype B (isolate …;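 active = above the screen mean plus three standard deviations and confirmed in dose response; inconclusive = results disagree or hit not tested in dose response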;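 note: Vif residues 1-94 fused to GST binding biotinylated APOBEC3G peptide 110-148; 0% = full assay without inhibitor and 100% = GST in place of GST-Vif; retest series ran down from 100 µM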
Beta apoptosis – inhibitors of cytokine-induced beta cell apoptosis, primary screen, luminescence; 300,000 compounds, 0.8% hits; protection from apoptosis, % (no concentration beside the values); INS-1E cytokine-induced death, ATP luminescence, 48 h; percent of positive-control rescue, neutral wells zero;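 active = all replicates at 75% or more, or half of them and the mean; inconclusive = half reach 75% but not the mean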;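 note: 0% = cytokine-treated negative control wells and 100% = positive control rescue; higher means more ATP so stronger rescue from cytokine killing; wells of about 40 µL received 100 nL stock; the first replicate is given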
A1 inh – caspase 3/7 activation in MEF A1-2A-BIM cells, primary screen, A1 inhibitor project, cell-based, luminescence, HTS. Caspase-Glo 3/7 luminescence, 3 h; percent of clofoctol response, vehicle zero. caspase activation, % (no concentration beside the values). 330,000 compounds, 0.066% hits;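 active = over half of replicate activation scores above 10%, or exactly half above 10 with the replicate mean above 10; inconclusive = replicate mean below 10 yet half the replicates above 10; inactive = over half of replicates below 10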;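 note: wells of about 30 µL received 50 nL stock; many hits fall short of the cut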
rRNA inh HTS OD600 – further read-out of rRNA inh HTS, marked with its call; OD600 change, %; measured here: OD600 growth;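 optical density of the mix in the first replicate; 0 = DMSO median and -100 = no signal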
rRNA inh HTS RFP – also measured in rRNA inh HTS; calls as there; RFP signal change, %; measured here: RFP humanized mutant strains;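 first replicate; 0 = DMSO median and -100 = no signal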
* marks the source's active call; other numbers are inactive results; ? = inconclusive; · = not tested or not shown; & = joins results of further samples. Only part of the results is shown; the hit share may differ from the screen's.

SMILES	T cruzi repl	RanGTP-Imp inh	rRNA inh HTS	rRNA inh HTS OD600	rRNA inh HTS RFP	Calb FLC	MLL AF4-AF9 inh	Vif A3G	Beta apoptosis	A1 inh
C=CCOc1ccc(/C=C2/C(=N)N3N=C(CC(=O)N4CCCC4)SC3=NC2=O)cc1OC	10	4.3	22	18	3.7	2	1.2	3%	-4	-1.2
O=c1onc(-c2cccs2)n1Cc1ccccc1	-7	3.7	·	·	·	-8	·	-3%	0	-0.5
COc1ccc(CC(=S)N2CCOCC2)cc1	4	2.1	·	·	·	-1	·	0%	-8	-0.6
CCCCN(C)CCCN1C(=O)C2C(C(=O)Nc3cccc(OC)c3)C3C=CC2(O3)C1C(=O)NC1CCCCC1C (stereo unspecified)	-4	2.2	5	0	-1.1	0	1.3	·	-2	0.1
O=C(CCCC(=O)N(c1ccc(F)cc1)C(C(=O)NC1CCCC1)c1ccc(O)cc1)Nc1ccccn1 (stereo unspecified)	7	-1.7	2	0	6.7	7	-1.1	·	4	0.0
O=S(=O)(Nc1ccc2c(c1)nc1n2CCN(Cc2ccccc2)C1)c1ccccc1	19	-1.7	·	·	·	-13	·	2%	-5	0.3
Cc1ccc(C(=O)N/C(=C/c2ccco2)C(=O)Nc2cccc(C(=O)O)c2)cc1	-29	1.1	32	5	3.5	20	-3.0	·	0	-0.5
CCn1c(SCC(=O)c2[nH]c(C)c(C(C)=O)c2C)nnc1-c1cccs1	-5	-1.3	·	·	·	-8	·	-1%	2	-1.2
CCOC(=O)N1CCN(C(=O)CSc2nnc(-c3ccccc3OC)o2)CC1	-9	-2.0	·	·	·	1	·	21%	0	1.0
Cc1ccccc1CN1C(=O)[C@@H]2Cc3c([nH]c4ccccc34)C(C)(C)N2C1=O	-2	-2.5	-9	-17	-3.7	-1	-0.6	·	5	0.1
O=S(=O)(c1cccc(F)c1)N1CCN(C(=S)NCC2CCCO2)CC1 (stereo unspecified)	-4	2.4	8	18	-1.5	-4	-1.5	·	-1	0.9
O=C(COC(=O)CCc1ccccc1)NCc1ccccc1	·	·	3	2	-2.3	·	0.0	-7%	-9	0.8
CC(=O)NCCn1c(SCc2ccccc2C)nc2ccccc2c1=O	49	-1.7	·	·	·	8	·	-4%	4	0.3
N/C(=N\OC(=O)c1ccccc1Br)c1cccc([N+](=O)[O-])c1	-1	2.2	6	3	-0.1	-6	-0.9	-2%	-4	-7.4
COc1cccc(CN2CCN(S(=O)(=O)c3ccc(NC(C)=O)cc3)CC2)c1OC	-7	4.8	-20	-17	0.9	-11	-1.2	·	-6	0.6

Ordered by value in Vif A3G (descending): 5 of the compounds above.
Structure | Vif A3G
COc1ccc(CC(=S)N2CCOCC2)cc1 | 0%
CCn1c(SCC(=O)c2[nH]c(C)c(C(C)=O)c2C)nnc1-c1cccs1 | -1%
N/C(=N\OC(=O)c1ccccc1Br)c1cccc([N+](=O)[O-])c1 | -2%
CC(=O)NCCn1c(SCc2ccccc2C)nc2ccccc2c1=O | -4%
O=C(COC(=O)CCc1ccccc1)NCc1ccccc1 | -7%

Next part.
SMILES	T cruzi repl	RanGTP-Imp inh	rRNA inh HTS	rRNA inh HTS OD600	rRNA inh HTS RFP	Calb FLC	MLL AF4-AF9 inh	Vif A3G	Beta apoptosis	A1 inh
COCCOC(=O)C1=C(C)N(c2ccccc2)C(=O)NC1c1cccc([N+](=O)[O-])c1 (stereo unspecified)	-15	0.2	-6	-13	-1.7	1	4.7	·	8	-0.3
Cc1ccc(S(=O)(=O)NCCC(=O)NCc2ccccc2)cc1	-5	-2.2	5	3	-6.0	-2	2.8	2%	-1	-0.2
CCc1ccc(/C=C2\SC(=S)N(CCCC(=O)Nc3ccc(C(=O)O)cc3)C2=O)cc1	8	-1.8	4	13	-2.2	14	4.7	·	-6	-0.7
CC(=O)N1CC2([N+](=O)[O-])CN(C(C)=O)CC([N+](=O)[O-])(C1)C2(C)C	-2	1.1	18	17	-0.3	-1	-2.4	-5%	-6	-0.3
Cc1ccc(-n2c(O)c(C=NCc3ccccn3)c3ccccc3c2=O)cc1C	17	0.2	3	-8	-0.7	32	13	-8%	11	-1.2
CCOc1ccc2nc(NC(=O)CN3CCN(C)CC3)sc2c1	7	3.9	·	·	·	-4	·	5%	-11	-0.2
O=[N+]([O-])c1c(NCCCO)cc(Sc2ccc(Cl)cc2)c2nonc12	51	-3.5	-3	-4	-5.6	-9	-3.7	?	0	2.4
CN(Cc1ccccc1)C(=O)COC(=O)c1ccc(=O)n(Cc2ccccc2)n1	-6	0.7	7	9	0.7	-3	1.4	7%	0	0.1
COCCN(Cc1ccccc1)C(=O)C1CCN(S(=O)(=O)c2ccc(OC)c(OC)c2)CC1	-10	-0.8	4	-2	1.7	-4	-1.0	-5%	3	-0.1
C=CCC(C(=O)Oc1c(C(C)(C)C)cc(C)cc1C(C)(C)C)c1ccccc1 (stereo unspecified)	·	·	14	19	-7.8	·	-0.1	·	3	-1.5
N#C/C(=C(/O)CN1CCCCC1)c1nc(-c2ccc(Cl)cc2)cs1	-1	3.5	0	-6	-0.3	4	?	6%	-4	0.0
NC(=O)N/N=C(/CCCCCC/C(=N\NC(N)=O)c1ccccc1)c1ccccc1	9	-4.3	-26*	-19*	-1.4*	1	6.3	·	9	0.8
COc1ccc(C(=O)N2CCCc3ccccc32)cc1OC	-8	6.9	5	8	0.5	7	-8.0	-1%	-3	-0.9
O=C(NCCCN1CCOCC1)c1ccc(Br)cc1	-2	-6.3	·	·	·	5	·	7%	·	-1.1
COC(=O)c1sc2nc(-c3ccccc3)nc(N3CCN(C)CC3)c2c1C	33	2.8	·	·	·	1	·	-5%	·	·
Cc1sc2nc(-c3ccncc3)[nH]c(=O)c2c1-c1ccccc1	-24	3.8	·	·	·	2	·	6%	0	-0.8
COc1ccc(C(=O)NCc2nnc(SCC(=O)N3CCC(C)CC3)o2)cc1	-12	-1.0	4	-1	3.1	0	-0.8	-2%	-5	0.6
CSc1sc(C(=O)Nc2ccc(F)cc2F)c2c1C=CCC2	8	1.1	-26*	-4.9*	-3.0*	-3	-1.0	2%	2	0.4
O=C(Nc1ccncc1)c1c(Cl)cccc1Cl	0	-1.7	8	1	0.2	-1	-2.0	·	-9	-0.8
O=C(NCCO)c1ccc(-c2nnc(Nc3ccc(O)cc3)c3ccccc23)cc1	-5	-1.0	-14	-6	-6.4	14	0.2	0%	-6	1.1
O=C(/C=C/c1ccco1)NC1=NCCS1	-6	1.0	·	·	·	-2	·	?	-3	-1.8
COc1cccc(CN(C(=O)c2cccs2)C2CCS(=O)(=O)C2)c1 (stereo unspecified)	-16	-0.3	3	-4	-1.5	4	2.1	·	-6	-0.2
O=C1CCC(=O)N1c1ccc(S(=O)(=O)Nc2cccc(Br)c2)cc1	-5	-5.8	2	2	-3.6	0	3.8	·	-4	-0.1
COc1ccc([C@H]2CC(=O)C=C(c3cccc(Br)c3)C2)cc1OC	·	·	-24	-39	-22	·	4.3	·	3	-0.5
O=C(Cn1c(NCCO)nc2ccccc21)c1ccc([N+](=O)[O-])cc1	-8	-1.3	0	2	-1.5	·	-9.8	11%	2	-0.4
CCOC(=O)C1CCN(S(=O)(=O)c2ccc(NC(=O)OC)cc2)CC1	-11	-1.2	·	·	·	-2	·	-6%	1	0.5
O=C(CCC(=O)N1CCN(C(=O)c2ccco2)CC1)c1ccc(F)cc1	1	-1.6	4	9	-5.0	20	0.0	·	-5	0.3
CCOC(=O)Nc1cccc(Nc2ccccc2)c1	41	-11	·	·	·	?	·	?	4	0.7
COc1ccc(N(CC(=O)N2CCOCC2)S(=O)(=O)c2ccccc2)cc1Cl	-4	-4.7	5	-5	1.2	-3	-8.3	·	-1	-0.2
Cc1sc2c(c1C)C(=O)/C(=C\Nc1ccncc1)S(=O)(=O)N2C	-12	1.4	0	-1	0.7	-4	3.5	16%	-8	0.8

Quoted at random: 2 compounds from above, in no set order.
SMILES	T cruzi repl	RanGTP-Imp inh	rRNA inh HTS	rRNA inh HTS OD600	rRNA inh HTS RFP	Calb FLC	MLL AF4-AF9 inh	Vif A3G	Beta apoptosis	A1 inh
O=C(/C=C/c1ccco1)NC1=NCCS1	-6	1.0	·	·	·	-2	·	?	-3	-1.8
Cc1sc2nc(-c3ccncc3)[nH]c(=O)c2c1-c1ccccc1	-24	3.8	·	·	·	2	·	6%	0	-0.8

Next results follow.
SMILES	T cruzi repl	RanGTP-Imp inh	rRNA inh HTS	rRNA inh HTS OD600	rRNA inh HTS RFP	Calb FLC	MLL AF4-AF9 inh	Vif A3G	Beta apoptosis	A1 inh
CCOC(=S)SCC(=O)Nc1nc(-c2ccc(Br)cc2)cs1	53	1.1	-20	-18	2.8	-8	-0.2	26%	28	-0.4
C/C(=N\N=C1\NC(=O)CC(C(=O)O)S1)c1ccc(F)cc1 (stereo unspecified)	-4	0.9	23	8	-3.9	-2	-3.5	33%	1	0.5
CC(=O)Nc1c(I)c(NC(C)=O)c(I)c(C(=O)O)c1I	-16&-13	-1.6&-11	·	·	·	-6	4.6&6.2	18%	0&1&-3	-0.3&0.2&-0.4
CC(C)C(NC(=O)c1ccc(Cl)cc1)C(=O)NCC1CCCO1 (stereo unspecified)	-9	2.3	-16	-27	-6.0	-7	-2.9	·	-7	0.6
CS(=O)(=O)N1CCN(C2CCN(Cc3ccccc3)CC2)CC1	5	0.8	·	·	·	-3	·	0%	2	-0.2
CCCCN(C(=O)c1cc(Cl)nc2ccccc12)c1c(N)n(Cc2ccccc2)c(=O)[nH]c1=O	-10	2.2	8	14	0.6	2	-2.1	-6%	4	0.0
CC(CN1CCN(C)CC1)OC(=O)c1ccccc1Cl (stereo unspecified)	24	-2.2	·	·	·	0	·	71%	-2	0.2
CS(=O)(=O)c1ccc(Sc2nc3ccccc3s2)c([N+](=O)[O-])c1	4	-2.4	·	·	·	2	·	6%	-24	0.0
CC(C)=CCN1CCN(Cc2cccc3c2OCO3)CC1CCO (stereo unspecified)	19	?	14	4	-1.7	-20	-0.3	14%	-1	1.3
Cc1cc2nn(-c3ccc(F)cc3)nc2cc1N	13	-3.2	10	25	3.7	1	-7.0	-2%	9	-7.1
C=C(C)CSc1nnc([C@@H]2CCCN2)o1	-9	-0.6	20	12	1.5	-8	·	-19%	·	0.1

Screening data: PubChem BioAssay, several laboratories
